Screens deposited in PubChem BioAssay by National Center for Advancing Translational Sciences (NCATS).
TRPML1 inh: qHTS for Inhibitors of the Human Mucolipin Transient Receptor Potential 1 (TRPML1); Mucolipin-1 (Homo sapiens), Q9GZU1; TRPML1-inducible cells, Ca2+ dye fluorescence, FDSS; hits give low values; inhibition of EC80 agonist-evoked calcium signal; activity change, negative = inhibition, % (no concentration beside the values); 390,000 compounds, 0.02% hits; in the data active means activity change below about -50%; inconclusive means about -30% to -50%; inactive means above about -30%;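 note: stimulus is agonist 54-4 at its EC80 concentration; % is set by controls: 0 for no effect and ±100 for the full control effect; compound concentration not given in the record; the text of the record puts the active cut at -80%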
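TRPML1-DL cells, Tet-induced overnight (~16 h, 37 °C) at 1,500 cells/well, were loaded with Ca8 no-wash dye plus quencher for 45-90 min at room temperature. Compounds were pinned during FDSS kinetic reading; agonist 54-4 at EC80 (4 uM final) then added.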
PINK1 modulator: A Quantitative High throughput Screen to Identify Chemical Modulators of PINK1 Expression. PINK1 immunofluorescence, high-content cytometry, 24 h. 410,000 compounds, 0.2% hits. Potency, µM (highest dose often 76.6 µM), without a hit: top-dose activation (PINK1 increase), hits mostly activators; active = well fitted activation curve with a large enough effect; inconclusive = small, poorly fitted or top-dose-only effect; inactive = flat fitted curve, though single readings scatter; cell line not stated here;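 note: potency is the fitted concentration of half-maximal effect; % of control where 0% means no effect; nearly all actives have a fitted effect of over 65% in size; a mitochondrial uncoupler was the plate control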
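Decision-based qHTS: stable cells, 24 h exposure to five compound concentrations, CCCP as control. Fixed cells stained for PINK1 plus nuclear, mitochondrial and cell markers, cytometer read.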
D2 ag: Beta-Arrestin HTS for Positive Allosteric Modulators of the Human D2 Dopamine Receptor: Agonists; D(2) dopamine receptor (Homo sapiens), P14416; 360,000 compounds, 0.084% hits; DiscoveRx PathHunter D2 beta-arrestin, luminescence, 90 min; 100% = 57 uM dopamine signal; activation, % (concentration not given with the values); AID 624465, 2012; in the data active = activation above about 40%; inconclusive = about 15% to 40%; inactive = below about 15%; note: the text of the record calls up to 30% inactive
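DiscoveRx PathHunter D2 beta-arrestin cells (2,100/well) attached overnight, then compound-stimulated 90 min at 37 C in HBSS/10 mM HEPES/0.1% Tween-20 buffer; beta-galactosidase complementation read by luminescence after 1 h at ambient temperature. Dopamine 57 uM final (EC100) as control.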
TRPML1 ag: qHTS for Agonists of the Human Mucolipin Transient Receptor Potential 1 (TRPML1) | Mucolipin-1 (Homo sapiens), Q9GZU1 | 410,000 compounds, 0.12% hits | TRPML1-expressing cells, Ca2+ dye fluorescence, FDSS; host cell line not named in the record; reference of the full effect not given here | activation, % (no concentration beside the values); in the data active = activation above about 50%; inconclusive = about 30% to 50%; inactive = below about 30%; note: 0% is about no effect; the text of the record puts the active cut at 80%
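Agonist activity was taken from a 110 s kinetic Ca2+ dye read on the FDSS after pinning compounds onto TRPML1-DL cells. The cells were seeded at 1,500/well with Tet inducer, incubated about 16 h, then dye-loaded at room temperature.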
D2 potentiator: Beta-Arrestin HTS for Positive Allosteric Modulators of the Human D2 Dopamine Receptor: Potentiators | D(2) dopamine receptor (Homo sapiens), P14416 | DiscoveRx D2 beta-arrestin cells, luminescence, 90 min; 100% = 57 uM dopamine signal | potentiation, % (test concentration not listed) | 360,000 compounds, 0.23% hits | AID 624464, 2012; active = potentiation of 50% or more; inconclusive = 30% to 50%; inactive = 30% or less;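 note: compound concentration not given in the record; tested on top of an EC20 dose of dopamine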
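PathHunter D2 cells, attached overnight at 37 deg C, received compound in DMSO plus dopamine at EC20 (50 nM final) for 90 min at 37 deg C. Beta-arrestin recruitment was read as luminescence after 1 h with detection reagent at ambient temperature.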
Six1-Eya2 blk: qHTS Assay for Inhibitors of the Six1/Eya2 Interaction. Homeobox protein SIX1 (Homo sapiens) + Protein phosphatase EYA2 (Homo sapiens), …. AlphaScreen GST-Six1/His-Eya2 binding, biochemical; hits give low values; control for the full effect not named in the record. activity change, % (concentration not given with the values). 360,000 compounds, 0.56% hits. AID 651725, 2012; in the data active = activity change below about -65%; inconclusive = about -30% to -65%; inactive = above about -30%; note: % is set by controls: 0 for no effect and ±100 for the full control effect
Target sequence (O00167 whole entry, looked up): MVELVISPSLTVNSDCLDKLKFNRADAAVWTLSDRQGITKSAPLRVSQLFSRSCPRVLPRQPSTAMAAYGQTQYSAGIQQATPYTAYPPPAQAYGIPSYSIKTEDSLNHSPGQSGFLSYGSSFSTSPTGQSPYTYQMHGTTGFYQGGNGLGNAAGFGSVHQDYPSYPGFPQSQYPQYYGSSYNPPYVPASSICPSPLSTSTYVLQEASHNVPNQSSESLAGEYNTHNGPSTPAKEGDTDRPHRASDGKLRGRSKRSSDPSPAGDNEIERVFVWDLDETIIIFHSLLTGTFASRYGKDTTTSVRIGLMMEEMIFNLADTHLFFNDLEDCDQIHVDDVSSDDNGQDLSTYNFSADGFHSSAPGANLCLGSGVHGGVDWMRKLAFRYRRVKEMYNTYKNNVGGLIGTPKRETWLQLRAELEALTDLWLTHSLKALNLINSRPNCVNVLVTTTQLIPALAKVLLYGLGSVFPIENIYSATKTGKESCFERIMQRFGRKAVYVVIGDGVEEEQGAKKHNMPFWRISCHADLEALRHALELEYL
Target sequence (Q15475 whole entry, looked up): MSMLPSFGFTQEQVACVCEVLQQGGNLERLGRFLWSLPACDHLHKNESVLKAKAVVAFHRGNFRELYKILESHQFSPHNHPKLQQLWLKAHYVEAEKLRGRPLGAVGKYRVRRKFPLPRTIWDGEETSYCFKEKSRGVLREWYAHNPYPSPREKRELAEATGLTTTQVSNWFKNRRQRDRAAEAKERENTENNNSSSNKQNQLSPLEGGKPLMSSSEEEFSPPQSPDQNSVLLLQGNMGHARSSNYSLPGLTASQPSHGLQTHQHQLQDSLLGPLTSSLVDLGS
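Six1/Eya2 binding was read as AlphaScreen signal after compounds were pinned into GST-Six1 plus His-tagged Eya2 (5X stock 250/500 nM) in pH 8.0 Tris/NaCl/TCEP buffer, beads added, then incubated 1 h, 37 C, dark.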
Starred values were filed as active, the others as inactive; [ ] = another dose, or the depositor's remark.

What do the screens show for `CCOC(=O)c1[nH]ncc1CN1CCN(Cc2ccc(C)cc2)C(CCO)C1` (configuration not stated)?
TRPML1 inh: -4; PINK1 modulator: 5.9%; D2 ag: -5.8; TRPML1 ag: -0.9; D2 potentiator: -6; Six1-Eya2 blk: 0

What do the screens show for `CC(NC(=O)c1ccc2c(c1)OCCO2)C(=O)O` (configuration not stated)?
TRPML1 inh: 31; D2 ag: -0.6; TRPML1 ag: 0.8; D2 potentiator: 8; Six1-Eya2 blk: 6

What do the screens show for `N#Cc1nc(Cc2ccccc2)oc1N1CCC(Cc2ccccc2)CC1`?
TRPML1 inh: 48; PINK1 modulator: 0.5%; D2 ag: 1.0; TRPML1 ag: 1.9; D2 potentiator: -18; Six1-Eya2 blk: inconclusive

Results for Cn1c(=O)[nH]c(=O)c2c1nc(N1CCN(c3ccccc3)CC1)n2CCSc1ncccn1 ?
TRPML1 inh: 0; PINK1 modulator: 0.8%; D2 ag: 2.8; TRPML1 ag: 0.0; D2 potentiator: 4; Six1-Eya2 blk: -1

How did CCN(Cc1ccccc1)C(=O)COC(=O)c1cnc(C)cn1 do in these assays?
TRPML1 inh: 0; PINK1 modulator: 1.2%; D2 ag: -7.9; TRPML1 ag: -0.5; D2 potentiator: -4; Six1-Eya2 blk: -5

What do the screens show for `CCNC(=S)Nc1ccc(N2CCCCC2)cc1`?
TRPML1 inh: 0; PINK1 modulator: 0.1%; D2 ag: -0.7; TRPML1 ag: -1.1; D2 potentiator: -3; Six1-Eya2 blk: -14

How did CCOCCCNC(=O)Nc1cc(C(=O)NCc2ccc(C(C)C)cc2)ccc1N1CCCC1 do in these assays?
TRPML1 inh: 1; PINK1 modulator: -0.6%; TRPML1 ag: 0.7

How did O=C(NCc1ccc(Cl)cc1)c1cccc2c1C(=O)N(CC1CCCO1)C2 (configuration not stated) do in these assays?
TRPML1 inh: -11; PINK1 modulator: -0.4%; D2 ag: 1.0; TRPML1 ag: 0.5; D2 potentiator: -1; Six1-Eya2 blk: -4

Results for CC(C)CC1NC(=O)N(CC(=O)Nc2ccc3c(c2)CCC3)C1=O (configuration not stated) ?
TRPML1 inh: -12; PINK1 modulator: -1.2%; D2 ag: -0.5; TRPML1 ag: 0.0; D2 potentiator: -2; Six1-Eya2 blk: -1

What do the screens show for `CCOc1ccccc1C(=O)Nc1ccc(-n2nncc2-c2ccccc2)cc1`?
TRPML1 inh: 8; PINK1 modulator: 1.2%; TRPML1 ag: 0.5

What do the screens show for `C[C@H](CO)N1C[C@H](C)[C@@H](CN(C)S(=O)(=O)c2ccc(Oc3ccccc3)cc2)OCc2cn(nn2)CCCC1=O`?
PINK1 modulator: 0.6%; D2 ag: -1.9; Six1-Eya2 blk: -2

How did O=S(=O)(c1ccc(SCCO)nc1)N1CCCC1 do in these assays?
TRPML1 inh: -2; PINK1 modulator: 1.1%; D2 ag: -0.1; TRPML1 ag: -0.6; D2 potentiator: 11; Six1-Eya2 blk: 6

How did O=C(Nc1ccnn1C1CCN(C/C=C/c2ccccc2)CC1)C1CCCC1 do in these assays?
TRPML1 inh: 8; PINK1 modulator: 1.9%; D2 ag: 4.2; TRPML1 ag: 0.7; D2 potentiator: -18; Six1-Eya2 blk: 0

How did COc1ccc(N(CC(=O)NCc2ccc(C)cc2)S(=O)(=O)c2c(C)nn(C)c2C)cc1 do in these assays?
TRPML1 inh: 7; PINK1 modulator: 3.6%; D2 ag: -1.5; TRPML1 ag: 0.4; D2 potentiator: -28; Six1-Eya2 blk: 2

Results for COc1ccc(OC)c(CNc2ccc3c(c2)nc(C)n3C)c1 ?
TRPML1 inh: 11; PINK1 modulator: 0.0%; D2 ag: -2.1; TRPML1 ag: 0.3; D2 potentiator: -3; Six1-Eya2 blk: -19

Results for CC1=CC(=O)C=C(C)C1=NOC(=O)/C=C\c1ccccc1 ?
TRPML1 inh: 6; PINK1 modulator: 0.0%; D2 ag: 2.6; TRPML1 ag: 0.2; D2 potentiator: -1; Six1-Eya2 blk: -10

Results for CCCCN(CCCC)CCNC(=O)Cn1nc(CC)n2c(cc3sc(C)cc32)c1=O ?
TRPML1 inh: -10; PINK1 modulator: 0.5%; TRPML1 ag: -0.4

What do the screens show for `Nc1ccccc1SCC(O)Cn1ccc2ccccc21` (configuration not stated)?
TRPML1 inh: -4; PINK1 modulator: 5.8%; D2 ag: 2.0; TRPML1 ag: -1.1; D2 potentiator: -2; Six1-Eya2 blk: -4

What do the screens show for `O=C(N/N=C/c1ccccc1)c1c(O)c2ccccc2[nH]c1=O`?
TRPML1 inh: 9; PINK1 modulator: 8.9µM*; D2 ag: -4.5; TRPML1 ag: 0.2; D2 potentiator: -8; Six1-Eya2 blk: 3

Results for O=C(Nc1nnc([C@H]2C[C@H](O)[C@@H](CO)O2)s1)Nc1cccc(Cl)c1Cl ?
PINK1 modulator: 0.1%; D2 ag: -1.9; TRPML1 ag: -0.1; D2 potentiator: -4; Six1-Eya2 blk: -3

Results for CC(C)C(=O)Nc1nnc(SCc2cc(=O)n3ccccc3n2)s1 ?
TRPML1 inh: -9; PINK1 modulator: -12%; TRPML1 ag: -0.2

Results for CN(C)c1ccc(NC(=O)c2ccc(COc3cccc(Cl)c3)o2)cc1 ?
TRPML1 inh: 26; PINK1 modulator: -0.1%; D2 ag: 1.0; TRPML1 ag: -0.5; D2 potentiator: 0; Six1-Eya2 blk: -72*

Results for CCN1CCN(S(=O)(=O)c2cc(C)c(OC)cc2C)CC1 ?
TRPML1 inh: -3; PINK1 modulator: 1.0%[38.3 µM]; D2 ag: -0.6; TRPML1 ag: -0.6; D2 potentiator: -11; Six1-Eya2 blk: 1

How did O=C(C[n+]1ccccc1)Nc1ccccc1 do in these assays?
TRPML1 inh: -26; PINK1 modulator: 0.3%; D2 ag: -3.1; TRPML1 ag: 0.5; D2 potentiator: 1; Six1-Eya2 blk: -3

How did O=S(=O)(Cc1cc(NCc2ccccc2)nc(-c2ccncc2)n1)c1ccccc1 do in these assays?
TRPML1 inh: -5; PINK1 modulator: 5.6%; D2 ag: 9.9; TRPML1 ag: 0.2; D2 potentiator: -12; Six1-Eya2 blk: 9

How did COc1ccc([N+](=O)[O-])cc1/C=N/NC(=O)/C(=C\c1cccs1)NC(=O)c1ccccc1 do in these assays?
TRPML1 inh: -2; PINK1 modulator: -2.0%; D2 ag: -3.5; TRPML1 ag: 2.2; D2 potentiator: -12; Six1-Eya2 blk: -22

Results for Oc1ccc(C[C@@H]2CNCCN2CC2(c3ccccc3)CC2)cc1 ?
TRPML1 inh: -4; PINK1 modulator: 2.7%; D2 ag: -2.7; TRPML1 ag: -0.4; D2 potentiator: -65; Six1-Eya2 blk: 1

Results for COCc1nnc(NC(C)=O)s1 ?
TRPML1 inh: 46; PINK1 modulator: 1.8%; D2 ag: -2.1; TRPML1 ag: -0.3; D2 potentiator: -4; Six1-Eya2 blk: 2

Results for c1ccc2c(c1)oc1c(-c3ccc4nccn4c3)cccc12 ?
TRPML1 inh: 20; PINK1 modulator: 1.4%; D2 ag: -2.8; TRPML1 ag: -0.4; D2 potentiator: -17; Six1-Eya2 blk: -14

How did O=C(CN1CCOC1=O)N1CCCC(Nc2ccc(F)c(F)c2)C1 (configuration not stated) do in these assays?
TRPML1 inh: -5; PINK1 modulator: -1.6%; D2 ag: 0.9; TRPML1 ag: 0.1; D2 potentiator: -16; Six1-Eya2 blk: 1

What do the screens show for `NC(=NCCc1ccc(Cl)cc1)NS(=O)(=O)c1ccccc1`?
TRPML1 inh: -10; PINK1 modulator: 0.0%; D2 ag: -0.8; TRPML1 ag: 0.4; D2 potentiator: -11; Six1-Eya2 blk: 3

Results for CC(=O)C1=C(O)C(=O)N(CCN2CCOCC2)C1c1ccccc1 (configuration not stated) ?
TRPML1 inh: -2; PINK1 modulator: -1.3%[38.3 µM]; D2 ag: 0.4; TRPML1 ag: -0.2; D2 potentiator: -13; Six1-Eya2 blk: 3

How did Cc1ccc(S(=O)(=O)Nc2nc3ccccc3nc2NCC2CCCO2)c(C)c1 (configuration not stated) do in these assays?
TRPML1 inh: 1; PINK1 modulator: 3.1%; D2 ag: 0.3; TRPML1 ag: -0.3; D2 potentiator: 2; Six1-Eya2 blk: 1

Results for CC(C(=O)NCC1CCCCC1)N1CCN(S(=O)(=O)/C=C/c2ccccc2)CC1 (configuration not stated) ?
TRPML1 inh: 22; PINK1 modulator: 0.1%; D2 ag: 2.1; TRPML1 ag: 2.2; D2 potentiator: -11; Six1-Eya2 blk: 3

What do the screens show for `COc1cc(/C=N/NC(=O)c2ccc(Cn3cc([N+](=O)[O-])cn3)o2)cc(Br)c1O`?
TRPML1 inh: -7; PINK1 modulator: 1.3%; D2 ag: -1.8; TRPML1 ag: 0.0; D2 potentiator: -21; Six1-Eya2 blk: -6

How did O=C(Nc1ccc2[nH]c3c(c2c1)CCCC3)c1ccco1 do in these assays?
TRPML1 inh: 25; PINK1 modulator: 0.9%; D2 ag: -2.1; TRPML1 ag: 0.9; D2 potentiator: -15; Six1-Eya2 blk: -9

Results for CC1CC1C(=O)OCC(=O)NCc1ccc(Cl)cc1Cl (configuration not stated) ?
TRPML1 inh: -2; PINK1 modulator: 0.7%; D2 ag: -2.7; TRPML1 ag: -0.4; D2 potentiator: -13; Six1-Eya2 blk: 12

Results for Cc1ccc(NC(=O)COC(=O)C2CC2)c(Br)c1 ?
TRPML1 inh: -5; PINK1 modulator: -0.5%; D2 ag: -7.2; TRPML1 ag: -0.7; D2 potentiator: -12; Six1-Eya2 blk: 0
